# D2 PAM – potentiates the human D2 dopamine receptor allosterically; 0.23% of 360,000 active; AID 624464; DiscoveRx D2 beta-arrestin cells, luminescence, 90 min; 100% = 57 uM dopamine signal; potentiation, % (concentration not given with the values); active = potentiation of 50% or more; inconclusive = 30% to 50%; inactive = 30% or less;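 note: compound concentration not given in the record; tested on top of an EC20 dose of dopamine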
#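 D2 cells co-treated with compound plus 50 nM dopamine (EC20) for 90 min at 37 deg C to detect potentiation. Beta-arrestin recruitment was read as enzyme-fragment luminescence after 1 h at ambient temperature. Full response was set by 57 uM dopamine.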
# Six1-Eya2 inh – Six1/Eya2 interaction inhibition | Q15475+O00167 | AlphaScreen GST-Six1/His-Eya2 binding, biochemical; hits give low values; control for the full effect not named in the record | activity change, % (concentration not given with the values) | 0.56% of 360,000 active; in the data active = activity change below about -65%; inconclusive = about -30% to -65%; inactive = above about -30%; note: % is set by controls: 0 for no effect and ±100 for the full control effect
# Target sequence (O00167 whole entry, looked up): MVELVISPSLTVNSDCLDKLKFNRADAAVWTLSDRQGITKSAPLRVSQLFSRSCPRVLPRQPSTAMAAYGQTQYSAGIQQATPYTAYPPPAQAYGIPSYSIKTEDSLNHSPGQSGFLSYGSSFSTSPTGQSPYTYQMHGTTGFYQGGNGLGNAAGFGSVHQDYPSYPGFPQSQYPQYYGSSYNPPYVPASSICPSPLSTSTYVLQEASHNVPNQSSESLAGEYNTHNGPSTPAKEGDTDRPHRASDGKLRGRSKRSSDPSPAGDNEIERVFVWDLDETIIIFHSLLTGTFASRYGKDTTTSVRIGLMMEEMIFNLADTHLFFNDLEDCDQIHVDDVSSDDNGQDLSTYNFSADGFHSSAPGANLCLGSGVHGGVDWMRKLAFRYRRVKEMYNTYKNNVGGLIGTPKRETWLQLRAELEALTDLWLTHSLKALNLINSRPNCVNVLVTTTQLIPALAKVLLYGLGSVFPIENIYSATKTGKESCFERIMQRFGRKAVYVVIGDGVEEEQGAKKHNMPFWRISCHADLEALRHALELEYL
# Target sequence (Q15475 whole entry, looked up): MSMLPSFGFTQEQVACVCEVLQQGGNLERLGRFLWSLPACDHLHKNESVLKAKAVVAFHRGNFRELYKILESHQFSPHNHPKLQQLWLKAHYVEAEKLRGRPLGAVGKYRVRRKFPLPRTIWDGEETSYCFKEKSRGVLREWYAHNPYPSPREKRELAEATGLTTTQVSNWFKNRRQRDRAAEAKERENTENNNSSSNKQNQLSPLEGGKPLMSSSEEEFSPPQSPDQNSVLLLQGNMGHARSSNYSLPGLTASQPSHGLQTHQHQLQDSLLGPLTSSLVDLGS
#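 AlphaScreen with GST-Six1 and His-Eya2 (5X mix: 250 nM and 500 nM), glutathione donor and nickel acceptor beads; buffer 50 mM Tris pH 8.0, 300 mM NaCl, 1 mM TCEP; 1 h at 37 C in the dark.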
# CtBP-E1A blk – inhibitors of CtBP/E1A interaction; AlphaScreen GST-E1A/His-CtBP binding, 1536-well; hits give low values; control for the full effect not named in the record; activity change, % (test concentration not listed); 0.49% of 340,000 active; in the data active means activity change below about -65%; inconclusive means about -30% to -65%; inactive means above about -30%; note: % is set by controls: 0 for no effect and ±100 for the full control effect; compound concentration not given in the record
#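 GST-E1A and His-tagged CtBP (125 nM each as 5X stock) were preincubated with pin-transferred compound for 2 h at 37 °C in the dark, then glutathione donor and nickel acceptor beads were added for 1 h before AlphaScreen reading.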
# D2 agonist – human D2 receptor agonism in beta-arrestin assay. P14416. DiscoveRx PathHunter D2 beta-arrestin, luminescence, 90 min; 100% = 57 uM dopamine signal. activation, % (concentration not given with the values). 0.084% of 360,000 active; in the data active = activation above about 40%; inconclusive = about 15% to 40%; inactive = below about 15%; note: compound concentration not given in the record; the text of the record calls up to 30% inactive
#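 DiscoveRx PathHunter D2 beta-arrestin cells (2,100/well) attached overnight, then compound-stimulated 90 min at 37 C in HBSS/10 mM HEPES/0.1% Tween-20 buffer; beta-galactosidase complementation read by luminescence after 1 h at ambient temperature. Dopamine 57 uM final (EC100) as control.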
# gsp ag – gsp mutant agonism. Potency, µM (doses to about 76.9 µM), without a hit: at the highest dose activation (cAMP increase), actives largely listed as activators. AID 624287. 0.13% of 340,000 active. gsp mutant cells, cAMP HTRF, 30 min; control for the full effect not named in the record; active = well fitted activation curve with a large enough effect; inconclusive = small, poorly fitted or top-dose-only effect, or another doubt; inactive = no such curve, though single readings can be large or run the other way; cell line not stated here;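 note: phosphodiesterase inhibitor Ro 20-1724 added with compounds to block cAMP breakdown; potency is the fitted concentration of half-maximal effect; nearly all actives have a fitted effect of over 60% in size; about a fifth of the inactives were tested at one dose only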
#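 Cells in DMEM/10% FBS with G418 were pretreated with compounds in DMSO plus […] (300 uM stock) for 30 min at 37C. cAMP was measured by HTRF (cAMP-d2 plus anti-cAMP antibody-K) after 30 min at room temperature.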
# gsp antag – gsp mutant antagonism. gsp-mutant cells, cAMP HTRF, 30 min; control for the full effect not named in the record. AID 624288. Potency, µM (highest dose often 76.9 µM), without a hit: top-dose activity change, negative = inhibition, usual class: inhibitors. 0.4% of 340,000 active; active = falling curve of any shape with a large fitted effect; inconclusive = falling curve, mostly with a smaller effect; inactive = flat or rising curve; cell line not stated here;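 note: intracellular cAMP measured with PDE inhibitor Ro 20-1724 present during compound exposure; potency is the fitted concentration of half-maximal effect; % is set by controls: 0 for no effect and ±100 for the full control effect; nearly all actives have a fitted effect of over 65% in size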
#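 Cells in G418 medium, seeded 16-24 h, 37C; buffer exchange to DPBS + 1 mM CaCl2, 0.5 mM MgCl2, 0.05% BSA; cpds in DMSO + […] (300 uM stock), 30 min 37C; HTRF cAMP detection.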
# The depositor's hits bear a star; ? = inconclusive; / = no result given; [ ] = dose if it differs, or a comment.
nr	SMILES	D2 PAM	Six1-Eya2 inh	CtBP-E1A blk	D2 agonist	gsp ag	gsp antag
1	COc1ccccc1-c1cc(C(=O)Nc2c(C)n(C)n(-c3ccccc3)c2=O)no1	-24	3	1	1.0	6%	5%
2	O=C(C=Cc1cccc(O)c1)c1ccccc1O	-4	15	11	-5.1	-15%	-19%
3	CC1CC2(C)Oc3ccccc3C3OCC1(CO)C(C)C32 (centres undefined)	-8	2	8	-1.9	18%	-4%
4	O=S(=O)(c1cccc(-c2n[nH]c(=S)n2-c2ccccc2Cl)c1)N1CCOCC1	-6	-2	3	-3.4	1%[15.4 µM]	-6%
5	Cc1cccc(C2Nc3ccccc3C(=O)N2CCc2ccccc2)n1 (centres undefined)	-7	-1	-16	-2.5	-16%	-16%
6	Cc1ccc(C)c(NC(CC(=O)c2ccccc2)C(=O)OCC(=O)c2cccs2)c1 (centres undefined)	-8	-1	6	-2.1	-22%	-2%
7	O=C(NC1CCCC1)c1ccc(COc2ccccc2Br)o1	-13	-2	-17	-0.9	1%	-43%
8	CC(C(=O)Nc1ccc2c(c1)OCCO2)N1Cc2ccccc2C1=O (centres undefined)	-14	4	-15	-5.3	?	1%
9	CCC1CCCCN1Cc1c(O)ccc2c(=O)c(-c3ccccc3OC)coc12 (centres undefined)	2	7	/	1.6	-11%	1%
10	COc1cccc(-c2cc(C(=O)O)[nH]n2)c1	2	-1	17	0.8	?	-3%
11	COc1cccc(/C=C2/SC(=S)N(CCCC(=O)Nc3ccc(O)cc3)C2=O)c1	-9	-17	?	3.2	-10%	?
12	O=C1CC2(CCCC2)Oc2ccc(Cl)cc21	-25	4	7	-2.6	/	10%
13	O=C(CSC1CC(=O)N(c2ccc(C(=O)O)cc2)C1=O)Nc1ccc2ccccc2c1 (centres undefined)	-5	-5	/	-4.0	19%	5%
14	C[C@H](CO)N1C[C@H](C)[C@@H](CN(C)S(=O)(=O)c2ccccc2)Oc2ccc(NC(=O)Nc3ccc4c(c3)OCO4)cc2C1=O	-6	-16	-14	0.6	/	-6%
15	O=C(c1ccc(S(=O)(=O)N2CCc3ccccc3C2)cc1)N1CCCCC1	-15	5	/	-7.2	8%	-14%
16	C=CCn1c(C(CC)CC(C)(C)O)n[nH]c1=S (centres undefined)	4	2	12	2.1	-57%[inhibitor]	18%
17	Cn1cnnc1SCc1nc(N)nc(Nc2ccccc2)n1	-17	-7	-18	0.3	7%	12%
18	COc1ccccc1CNC(=O)COC(=O)c1cccc(S(=O)(=O)N2CCOCC2)c1	-7	3	2	-1.7	-7%[15.4 µM]	-4%
19	CCOC(=O)Cc1csc(NC(=O)CN(C)S(=O)(=O)c2cccc3cccnc23)n1	5	5	-2	-1.6	-2%	-15%
20	O=C(Nc1ccc(O)cc1)c1cccc(Oc2ccc([N+](=O)[O-])cc2)c1	-5	-20	-10	2.9	-16%	-13%
21	COc1cc(NC(=O)c2ccccc2-n2cnnn2)cc(OC)c1	-2	0	1	-2.3	-30%[15.4 µM]	3%
22	c1ccc2c(CN3CCOCC3)csc2c1	-2	6	-4	-2.7	-11%[15.4 µM]	12%
23	C=CCn1c(SCC)nc2sc3c(c2c1=O)CCc1ccccc1-3	-17	14	17	-4.4	-8%	-20%
24	Cc1cc(-n2c(C)cc(C(=O)CSc3nnnn3-c3ccccc3)c2C)no1	-5	-18	-6	1.7	-42%[inhibitor]	-14%
25	Cc1ccc(NS(=O)(=O)c2cccc(C(=O)NNC(=O)c3cccn3C)c2)c(C)c1	-4	-13	-2	4.5	13%[15.4 µM]	2%
26	CCOc1ccc2nc(NS(=O)(=O)c3ccc4c(c3)n(C)c(=O)n4C)sc2c1	6	-14	-5	-0.9	2%	-17%
27	O=C(COC(=O)/C=C/c1ccco1)NCc1ccc(Cl)cc1Cl	0	-4	/	7.5	-24%	5%
28	O=C(c1ccc(F)cc1F)N1CCCc2ccccc21	-3	2	/	-4.3	-3%	8%
29	O=C(Cc1ccccc1)Nc1ccccc1N1CCN(c2ccccc2)CC1	-23	6	53	-3.1	-1%	-4%
30	COc1ccc(CC(=S)N2CCOCC2)cc1F	-15	-4	-6	-2.0	-3%	6%
31	Oc1ccc(C23CCCC2C2(CCCC2)c2ccc(O)cc2O3)c(O)c1 (centres undefined)	2	-5	-3	8.2	0%	-12%
32	O=[N+]([O-])c1ccc(-c2nn(-c3ccccc3)cc2/C=N/n2c(-c3cccs3)n[nH]c2=S)cc1	-2	0	5	1.6	-13%	1%
33	Cn1c(=O)c2ncn(CC(=O)NC3CCCCCC3)c2n(C)c1=O	-11	3	0	-2.9	?	-5%
34	O=C(COc1ccccc1)Nc1ccc(Cl)c(-c2nc3ncccc3o2)c1	-15	6	3	0.6	-5%	13%
35	Cc1ccc(C(=O)OCC(=O)NCCc2ccc(F)cc2)cc1S(=O)(=O)N1CCOCC1	-17	4	-10	-4.0	10%	-8%
36	COc1ccc(C)cc1NC(=O)C(NCC1CCCO1)c1ccccc1 (centres undefined)	-14	10	32	-3.7	0%	-4%
37	CCc1nc2c(sc3nc4c(cc32)COC(C)(C)C4)c(=O)n1CCN(CC)CC	-6	5	/	-4.8	27%	9%
38	NN=C(NN=Cc1ccccc1)c1ccccc1	-16	16	11	-3.4	24%	?
39	CC(C)Cc1nnc(NC(=O)CCC(=O)N2CCN(c3ccc([N+](=O)[O-])cc3)CC2)s1	1	-6	-6	2.3	26%	?
40	CC1Cc2ccccc2N1C(=O)CSc1ccccn1 (centres undefined)	-13	4	1	-3.4	-15%	/

# Profiles as entered above. Order of values: D2 PAM, Six1-Eya2 inh, CtBP-E1A blk, D2 agonist, gsp ag, gsp antag
# `CC1Cc2ccccc2N1C(=O)CSc1ccccn1` (centres undefined) as listed: -13, 4, 1, -3.4, -15%, /
# `COc1ccc(CC(=S)N2CCOCC2)cc1F` as listed: -15, -4, -6, -2.0, -3%, 6%

# More structures:
nr	SMILES	D2 PAM	Six1-Eya2 inh	CtBP-E1A blk	D2 agonist	gsp ag	gsp antag
41	O=C(COC(=O)c1cc(Cl)ccc1[N+](=O)[O-])NC1CC1	3	4	-1	?	-1%	-1%
42	CCCc1ccc(C(O)c2ncc(-c3cccc(C)c3)[nH]2)cc1 (centres undefined)	-6	-16	-10	-5.9	/	/
43	CCc1nc2c(OCCOc3ccc(F)cc3)cccn2c1N(C)C(=O)CC(C)C	-3	-1	1	-3.3	/	/
44	O=C(CC(c1ccccc1)(c1ccccc1)c1ccccc1)N[C@@H](Cc1ccc(O)cc1)C(=O)O	-5	-4	0	3.0	/	-9%
45	COc1ccc2nc(NC(=O)C3CCN(C(=O)c4ccc(F)cc4)CC3)sc2c1	-5	-15	5	0.3	8%[15.4 µM]	-31%
46	O=C(NNC1CC(=O)N(c2ccc(Cl)cc2)C1=O)c1ccccn1 (centres undefined)	-6	-16	/	-4.4	6%	-14%
47	Cc1nc(CNC(=O)CC2C(=O)NCCN2Cc2ccoc2)nc2c1CCCC2 (centres undefined)	-5	7	10	-2.5	?	13%
48	O=C(NCCCO)c1ccc2nc(-c3ccco3)c(-c3ccco3)nc2c1	14	?	-16	14	14%	-7%
49	NNc1ccc(Cl)nn1	-2	1	-7	-4.0	15%[15.4 µM]	0%
50	Cc1nn(-c2ccccc2)c2nc(C(F)(F)F)[nH]c(=O)c12	-2	-5	/	1.0	-72%[inhibitor]	-21%
51	CCOC(=O)c1ccc(Nc2ncccc2[N+](=O)[O-])cc1	1	-30	-21	-2.1	-24%[15.4 µM]	-1%
52	CCN1CCC(N2CCN(c3ccc(Cl)cc3)CC2)CC1	-16	-1	/	-3.0	-3%	-4%
53	O=C(Nc1cccnc1)c1cc(-c2cccnc2)nc2ccc(Br)cc12	-5	1	1	-3.8	?	2%
54	Cc1cc(NC(=O)CSc2nc3ccccc3c(=O)n2C(C)c2ccccc2)no1 (centres undefined)	-14	-9	-2	-1.0	?	6%
55	Cc1ccc(SCCNC(=S)Nc2ccc(C)cc2C)cc1	1	-4	0	-2.0	?	4%
56	COc1ccc(-c2coc3cc(OC4OC(CO)C(O)C(O)C4O)cc(O)c3c2=O)cc1 (centres undefined)	-2	0	0	-4.0	-3%	9%
57	CCOc1ccccc1/C=N/NC(=O)c1ccc(Cn2cc([N+](=O)[O-])cn2)o1	-23	-4	-8	-1.7	-27%	-6%[15.4 µM]
58	Cc1cc(NS(=O)(=O)c2ccc(NC(=O)C(CC(C)C)N3C(=O)c4ccccc4C3=O)cc2)nc(C)n1 (centres undefined)	-8	-15	-10	-4.0	-6%	3%
59	COc1cc2c3c(c1)/C(=C1/SC(NC(C)=O)=NC1=O)C(=O)N3C(C)(C)C=C2C	-12	-23	-16	-8.5	-50%[inhibitor]	-4%
60	C=C(C1=CCN(S(=O)C(C)(C)C)[C@@H]1CCO)c1ccccc1 (some centres undefined)	/	-1	-5	0.2	/	1%
61	Cc1cc(OCC(=O)NCC(O)c2ccccc2)c2c(C)c(C)c(=O)oc2c1 (centres undefined)	6	4	-10	-6.2	0%	-10%
62	CCc1nn(C)c(-c2n[nH]c(=S)n2N)c1Cl	-3	6	-2	3.0	5%	-2%
63	Cc1cc(Oc2ccc(C#N)cc2)nc(NCc2ccccc2)n1	-5	3	10	-0.8	20%	-2%
64	O=C(Nc1ccc(Nc2ccccc2)cc1)c1cc([N+](=O)[O-])ccc1Cl	-12	4	/	3.5	-1%	-22%
65	CC(=O)c1c(C)[nH]c(C(=O)OCC(=O)Nc2ccc3[nH]c(=O)[nH]c3c2)c1C	-3	-20	-6	1.1	25%[15.4 µM]	3%
66	COc1cc(OC)c(OC)cc1CN1CCN(Cc2cccc(F)c2)CC1	-3	-20	16	0.1	-10%	-8%
67	NC(=O)C1CCN(c2nc(-c3ccccc3)nc3c2oc2ccccc23)CC1	-3	19	41	0.3	4%	26%
68	Cc1c(NC(=O)C2CCN(S(=O)(=O)c3ccc(Cl)cc3)CC2)c(=O)n(-c2ccccc2)n1C	-4	6	0	-1.2	-40%	1%
69	O=C(Nc1cc(N2CCOCC2)ncn1)NC1(C(F)(F)F)Oc2ccccc2O1	4	-2	0	2.0	3%	-5%
70	CCOC(=O)C1=C(C)NC(C)=C(C(=O)OCC)C1c1cccs1	-4	-5	22	-1.1	0%[15.4 µM]	-2%
71	COc1ccc(C2CC=C(C(C)=O)CN2S(=O)(=O)c2ccc(C)cc2)cc1 (centres undefined)	-4	-5	3	-3.9	/	/
72	CCOC(=O)Cc1csc(NC(=O)CSc2nncn2C)n1	-1	3	-3	2.7	9%	-9%
73	c1ccc2c(CSc3ncnc4nc[nH]c34)cccc2c1	-2	3	-4	2.2	5%[15.4 µM]	-5%
74	O=c1[nH]cnc2cc(-c3ccc(Br)cc3)sc12	-5	0	0	-4.0	19%[15.4 µM]	-4%
75	CCN(CC)C(=O)c1ccccc1NS(=O)(=O)c1ccc(C)cc1	-8	2	4	-5.0	?	-2%

# Assay outcomes from PubChem BioAssay.
